Compound activity as filed in PubChem BioAssay.
nsP2pro primary: Primary qHTS for inhibitors of NSP2Pro chikungunya virus (CHIKV). AID 1964107, 2024. Polyprotein P1234 (Chikungunya virus (strain S27-African prototype)), Q8JUX6. Potency, µM (highest dose often 24.9 µM), for inactives: top-dose activity change, negative = inhibition, hits mostly inhibitors. actives 1.1% (n = 31,000). FRET peptide cleavage, nsP2pro, fluorescence 1 h; active means well fitted inhibition curve with a large enough effect; inconclusive means small, poorly fitted or top-dose-only effect; inactive means no such curve, though single readings can be large or run the other way; also: nearly all actives have a fitted effect of over 60% in size; a reference inhibitor and vehicle were the controls
* marks the source's active call; other numbers are inactive results; i = inactive; ? = inconclusive; & = joins results of further samples; [ ] = dose if it differs, or a comment. % is scaled to controls: 0 for no effect and ±100 for the full control effect; potency is read from the fitted curve at half-maximal effect.

SMILES | nsP2pro primary
CN(C)S(=O)(=O)N1CC(CNC(=O)C2CC2)C2(CCCCC2)C1 (stereo not drawn) | i
OC[C@]1(O)OC[C@@H](O)[C@H](O)[C@@H]1O | ?
CC1CCN(S(=O)(=O)c2ccc3nc(Nc4ccc(C#N)cc4)ccc3c2)CC1 | 14%
CCOc1ccc(C(=O)Nc2cc(-c3cn4cccnc4n3)ccc2C)cc1OCC | -21%
Cc1c(CN(C)C(=O)/C=C/c2cnc3c(c2)CCC(=O)N3)oc2ccccc12 | 4%
CNC(=O)[C@@H](C1CC1)N1CCC[C@H]1C(=O)N1CCOCC1 | -4%[39.2 µM]
COc1ccc(-c2nn3c(-c4ccc(C)cc4)nnc3c3ccccc23)cc1 | -28%
Cc1ccc(N2CCN(C(=O)c3noc4c3COc3ccc(C)cc3-4)CC2)c(C)c1 | -34%
COc1cc2nc(SCc3ccc(Cl)cc3)n3nc(CCn4nc(C)cc4C)nc3c2cc1OC | -12%
O=C(CSc1n[nH]c(-c2ccccc2Cl)n1)NCCc1ccccc1 | -17%
CC[C@@]1(O)C[C@H](O[C@H]2C[C@H](N(C)C)[C@H](O[C@H]3C[C@H](O)[C@H](O[C@H]4CCC(=O)[C@H](C)O4)[C@H](C)O3)[C@H](C)O2)c2c(cc3c(c2O)C(=O)c2c(O)cccc2C3=O)[C@@H]1C(=O)OC | ?
COc1ccc(/C=C/C(=O)Nc2ccc(Cl)c(Cl)c2)cc1 | -15%
CNc1ncc(-c2ccc3c(=O)c(C(=O)O)cn(C4CC4)c3c2C)cc1C | -5%[5.1 µM]
Cc1cc(C)n2ncc(C(=O)Nc3ccc4c(c3)OCO4)c2n1 | 3%
CCOc1cccc(CN2CCCC(CNC(=O)c3cccc(OC)c3OC)C2)c1 (stereo not drawn) | 4%
Cc1cc2c(s1)c1cnn(Cc3ccc(OC(F)F)cc3)c(=O)c1n2C | 3%
COc1cc(OC)cc(-c2ccc3c(-c4ccc(F)cc4)[nH]nc3n2)c1 | 21%
Cc1ccc(NC(=O)Nc2nnc(-c3ccncc3)s2)cc1C | i
O=c1cc(-c2ccccn2)oc2c(-c3cccc(CO)c3)nccc12 | -6%[39.2 µM]
CC(C)c1nn2c(=O)cc(COC(=O)c3ccc(NC(=O)C4CCCCC4)cc3)nc2s1 | ?

Taken from above.
`COc1ccc(/C=C/C(=O)Nc2ccc(Cl)c(Cl)c2)cc1` in nsP2pro primary is listed with -15%
`Cc1c(CN(C)C(=O)/C=C/c2cnc3c(c2)CCC(=O)N3)oc2ccccc12` in nsP2pro primary is listed with 4%

Other records
SMILES | nsP2pro primary
CS(=O)(=O)c1ncc(N(Cc2ccco2)Cc2ccco2)c(C(=O)Nc2ccccc2Br)n1 | -13%
CCc1cc2c(s1)-n1c(C)nnc1CN=C2c1ccccc1Cl | 4%
CC1=C(c2ccc(C)c(C)c2)S(=O)(=O)N=C1N1CCC(C(=O)N2CCC(C(N)=O)CC2)CC1 | -5%
CC(C)n1cnnc1CC1CCN(S(=O)(=O)Cc2ccccc2)C1 (stereo not drawn) | -1%
CCc1ccc(NC(=O)c2sc3ncnc(N(C)C4CCCCC4)c3c2C)cc1 | -16%
COCCOC(=O)c1c(-c2ccccc2)c(-c2ccccc2)nn(C)c1=O | -7%
CCO[C@H]1CN(C2CCN(c3ccc4c(c3)CCC4)CC2)C[C@@H]1O | -9%
O=C(Nc1ccc(F)cc1)c1ccc2ccnn2c1 | 4%[39.2 µM]
O=C(NCc1nc2ccccc2n1Cc1ccccc1Cl)c1ccccc1 | -18%
O=C(NCCC1=CCCCC1)c1c(-c2cncnc2)cc(=O)n2c1CCCC2 | -11%
CCc1ccccc1N(CC)C(=O)c1c(C)oc2ncn(C)c(=O)c12 | -11%
CCN1/C(=C/C(C)=O)Sc2ccc(O)cc21 | 0%
CC1=C2C=C(CO)C(CO)CCC2(C)CCC1=O (stereo not drawn) | 12%
Cc1ncc2c(n1)C[C@@H]1CC[C@H]2N1C(=O)C1(c2ccccc2)CC1 | 4%
Cc1onc(C(=O)N2CCN(C(c3ccc(Cl)cc3)c3ccc(Cl)cc3)CC2)c1[N+](=O)[O-] | 29%
O=C1C(Cc2ccc(O)cc2)N2C(=O)CCN(C(=O)NCc3ccccc3)C2CN1Cc1cccc2ccccc12 (stereo not drawn) | 0%
CCCc1c(C(=O)OCC)nnc2c(-c3ccccc3)c(C)nn12 | -8%
CN(Cc1cccc(-c2nn[nH]n2)c1)C(=O)c1ccc(C2CCCNC2)cc1 (stereo not drawn) | i
C[C@@H]1CC[C@H]2[C@@H](C)C(=O)O[C@@H]3O[C@@]4(C)CC[C@@H]1[C@]32OO4 | 23%&-10%
O=C(c1ccccn1)c1cnn2c(-c3ccncc3)ccnc12 | -19%

Continued; it opens with the five that closed the last part.
SMILES | nsP2pro primary
O=C1C(Cc2ccc(O)cc2)N2C(=O)CCN(C(=O)NCc3ccccc3)C2CN1Cc1cccc2ccccc12 (stereo not drawn) | 0%
CCCc1c(C(=O)OCC)nnc2c(-c3ccccc3)c(C)nn12 | -8%
CN(Cc1cccc(-c2nn[nH]n2)c1)C(=O)c1ccc(C2CCCNC2)cc1 (stereo not drawn) | i
C[C@@H]1CC[C@H]2[C@@H](C)C(=O)O[C@@H]3O[C@@]4(C)CC[C@@H]1[C@]32OO4 | 23%&-10%
O=C(c1ccccn1)c1cnn2c(-c3ccncc3)ccnc12 | -19%
Cn1nc(CN2CCOCC2)c2c1CCN(S(=O)(=O)c1cccnc1)C2 | -5%
C=C1C(=O)O[C@@H]2C[C@@]3(C)CCCC(=C)[C@]3(O)C[C@H]12 | 0%
Cn1c(=O)oc2cc(S(=O)(=O)NC(Cc3ccccc3)C(=O)Nc3ccc(F)c(Cl)c3)ccc21 (stereo not drawn) | -20%
CC(=O)Nc1sc2c(c1-c1ccc3scnc3c1)CCNC2 | ?
COc1cc(C/C(=C/NC(C)=O)N(CC(=O)Cc2ccccc2)C(C)=O)cc2c1OCO2 | -9%[10 µM]
O=C(COc1ccccc1)N1CCC2(CC1)OCCN(CCc1ccccc1)C2=O | -4%[39.2 µM]
CN(c1ncccc1CNC(=O)C1CCOCC1)C1CCCCC1 | 1%
Cc1ccc(C(=O)Nc2ccc(S(=O)(=O)Nc3onc(C)c3C)cc2)cc1 | -13%
Cc1cccc(-c2noc(-c3cccnc3NCc3ccc(Cl)cc3)n2)c1 | -6%
CCOC(=O)NCCCC(=O)NCCc1ccccc1 | -5%
Cn1cnc(S(=O)(=O)N2[C@H]3CC[C@@H]2c2cnc(-c4ccccc4)nc2C3)c1 | i
Nc1ccc(C(=O)Nc2ccc(-c3nc4ccccc4[nH]3)cc2)cc1Cl | -8%
COCCn1nnnc1C1CC2(CCOCC2)C(=O)N1Cc1ccc(SC)cc1 (stereo not drawn) | -9%
N#CSc1cc(SC#N)c(N)nc1N | 1.2µM*
COc1cc(CNC(=O)c2nc(C(O)c3ccccn3)oc2C)cc(OC)c1 (stereo not drawn) | ?
CCN(CC)C(=O)c1ccc(NC(=O)COc2ccc(-c3nn(C)c(=O)c4ccccc34)cc2)cc1 | -11%
CCOc1ccccc1NC(=O)C1CCN(S(=O)(=O)c2ccc3c(c2)CC(C)N3C(C)=O)CC1 (stereo not drawn) | -17%
CCc1ccc(CN(Cc2cn[nH]c2-c2ccc(OC)cc2)C(=O)Nc2cc(Cl)ccc2OC)cc1 | 4%
CCOc1ccccc1CNC(=O)c1cccn1-c1nnc(N2CCCCC2)s1 | -24%
COc1cc(CCN)ccc1O | ?

An excerpt of the results above:
SMILES | nsP2pro primary
CCOc1ccccc1CNC(=O)c1cccn1-c1nnc(N2CCCCC2)s1 | -24%
COc1cc(CCN)ccc1O | ?

New compounds follow
SMILES | nsP2pro primary
Cc1ccc(Cn2cccc2C2=NC(C)(C)CO2)cc1 | -12%
CN(C)C1(CNC(=O)COc2ccc(C(C)(C)C)cc2)CCCCC1 | 22%
CCS(=O)(=O)N1CCC(Oc2cccc(C(=O)NCc3ccccn3)c2)CC1 | 2%
Cc1ccccc1Cn1c(=O)n(CCC(=O)NCc2ccco2)c(=O)c2sccc21 | -25%
O=C(CCCN1CCC2(CC1)C(=O)NCN2c1ccccc1)c1ccc(F)cc1 | -6%
O=C1CCCC2=C1C(c1cccc(C(F)(F)F)c1)N=C(Nc1nc3ccccc3o1)N2 (stereo not drawn) | -9%
O=C(COc1ccccc1)N1CCC(c2n[nH]c(=O)n2Cc2ccc(F)cc2)CC1 | i
COc1cc(-c2nc(S(=O)(=O)c3ccc(Br)cc3)c(N3CCOCC3)o2)cc(OC)c1OC | -20%
O=C(/C=C/c1ccc(OC(F)(F)F)cc1)Nc1cccc([S+](=O)([O-])Nc2ccccc2F)c1 | i
CNC(=O)COC(=O)NCCC1CCN(c2cccc(C)n2)CC1 | -13%
O=C1NCCCCCN(S(=O)(=O)c2cccs2)[C@H]2CCCC[C@@H]12 | i
Cc1cc(C)nc(NC(=S)N2CCN(c3ccc4nncn4c3)CC2)c1 | -24%
O=C(NO)c1ccc(CC(=O)N(CCO)c2ccccc2)cc1 | ?
COc1ccccc1-c1nc(SCC(=O)NCc2ccccc2)c2c(=O)n(C)c(=O)n(C)c2n1 | -12%
CN(C)CCCOC1(Cc2ccccc2)CCCCCC1 | -9%
CSc1ccc(-c2ccc3c(c2)C(=O)N2CCN(C(=O)CCC(=O)O)C[C@@H]2C(=O)N3)cc1 | 2%
O=C(c1cccn1C1CC1)N1C[C@H](CO)C[C@H](CN2CCCC2)C1 | i
CC(C)CCNc1ncccc1C(=O)N1CCN(Cc2ccccc2)CC1 | -10%
Cc1cc(C)c2oc(C(=O)N(Cc3ccc(F)cc3)C3CCS(=O)(=O)C3)cc(=O)c2c1 (stereo not drawn) | -6%
CC(C)(C)c1cc(C[C@H]2CNCC[C@H]2CC(=O)N2CCC(Cc3ccccc3)CC2)no1 | 2%

Laid out differently: results already given
SMILES	nsP2pro primary
O=C1CCCC2=C1C(c1cccc(C(F)(F)F)c1)N=C(Nc1nc3ccccc3o1)N2 (stereo not drawn)	-9%
O=C(c1cccn1C1CC1)N1C[C@H](CO)C[C@H](CN2CCCC2)C1	i

(continued)
SMILES | nsP2pro primary
N#Cc1c(-c2ccc(C(=O)c3ccc(O)cc3)cc2)no[n+]1[O-] | ?
Cc1ccsc1CN(C)c1ncnc2ccc(-c3ccoc3)cc12 | -22%
Cc1noc(C)c1S(=O)(=O)N1CCC[C@H]1C(=O)N1CCCCCCNC(=O)CC1 | 2%
CCOCCCNC(=O)C1CCC(CNS(=O)(=O)c2ccc(NC(C)=O)cc2)CC1 (stereo not drawn) | -24%
CC(C)NC(C)C | -1%
Cc1cc2ccccc2n1CCNC(=O)c1cccc(Cl)c1 | -31%
Cc1ccc(C)c(C(=O)N[C@@H]2CN(c3ccncn3)C[C@H]2CO)c1 | -6%
COc1ccccc1C1=Nn2c(nnc2-c2ccccc2O)SC1 | -1%
CO[C@H]1C(=O)N(C(C)C)[C@H]1C1CCN(S(=O)(=O)c2ccc3c(c2)CCC3)CC1 | i
Cc1cccc(-c2cc(-c3ccccc3)nc(SCC(=O)Nc3ccccc3)c2C#N)c1 | -9%
COC(=O)c1ccc(NC(=O)CSc2n[nH]c(CC(C)C)n2)cc1 | -24%
CC1(C)CCC[C@@]2(C)C1[C@H](OC(=O)/C=C/C=C/C(=O)O)C=C1COC(=O)[C@@]12O (stereo partly drawn) | -5%
Cc1ccc(NS(=O)(=O)c2ccc3c(c2)CC(=O)N3C)cc1C | -4%
CCc1ccc(OCC(=O)N(Cc2ccc(OC)cc2)C2CCS(=O)(=O)C2)cc1 (stereo not drawn) | -8%
CC(C)(O)c1ccc2c(c1)ncn2-c1cccc(-c2ccccc2C#N)c1 | 42%[activator]
Cc1ccc(CN2c3ccccc3-c3nc(SCC(=O)Nc4c(C)cc(C)cc4C)ncc3S2(=O)=O)cc1 | -18%
COc1ccc(C2=C(C)C(=NCCCN3CCN(c4cc(C)ccc4C)CC3)NS2(=O)=O)cc1 | 14%
Cc1cccc(NC(=O)CSc2nnc(NC(=O)Nc3ccccc3)s2)c1C | -24%
CC(=O)OCC(=O)[C@@]1(OC(C)=O)[C@@H](C)C[C@H]2[C@@H]3C[C@H](F)C4=CC(=O)C=C[C@]4(C)[C@@]3(F)[C@@H](O)C[C@@]21C | -1%
O=C(CCS(=O)(=O)c1ccccc1)N(Cc1cccnc1)c1nc2ccc(Cl)cc2s1 | -14%
Cc1ccnc(NC(=S)N2CCN(c3ccc(C(F)(F)F)cc3[N+](=O)[O-])CC2)c1 | -8%
Clc1cccc(C2=NC(c3cccs3)=Nc3ccc(Br)cc3N2)c1 | -29%
COc1ccc(C(C(=O)O)N2CCN(Cc3csc(C)n3)CC2)cc1C (stereo not drawn) | i
O=C(CC1N=C2c3ccccc3N=C(SCc3ccc(Cl)cc3)N2C1=O)NCCc1ccccc1 (stereo not drawn) | -29%
COc1cc(SC)ccc1C(=O)N1CCn2c3c(c4cc(C)ccc42)CCCC31 (stereo not drawn) | -18%
CC(=O)c1cccc(Nc2nc(-c3cccc(C)c3)nc3ccccc23)c1 | -10%
COc1cc(OC)cc(-c2nc(-c3ccc4c(c3)[nH]c(=O)n4C)no2)c1 | -12%
CC(=O)Nc1ccc(NC(=S)NC(=O)c2ccc(C(C)(C)C)cc2)cc1 | 2%&0%
Fc1cc(Nc2nc(-c3ccncc3)nc3ccccc23)ccc1C(F)(F)F | ?
C/C=C(\C)C(=O)OCC1OC(OC2OC(COC(=O)/C(C)=C/C)C(OC3OC(CO)C(OC(=O)/C(C)=C/C)C(OC(=O)/C(C)=C/C)C3O)C(O)C2O)C(O)C(O)C1OC1OC(CO)C(OC(=O)/C(C)=C/C)C(OC(=O)/C(C)=C/C)C1O (stereo not drawn) | -7%[5.1 µM]
CC1(C)CCCC2(C)C(CO)C3CCC2C31 (stereo not drawn) | ?
CN(C)C[C@@H]1CN(c2ncccn2)C[C@H]1NC(=O)c1ccc(Cl)cc1 | -8%
COC(=O)C1=C(C)NC(c2ncc(F)cc2F)=N[C@@H]1c1ccc(F)cc1Cl | -14%
COCCCNC(=O)C1CCCN1Cc1cccc(-c2ccc(C)c(Cl)c2)c1 (stereo not drawn) | 3%

Some of the compounds tested. The share of hits here may be higher or lower than overall.
